Compound activity (PubChem)
VACV mCherry inh: vaccinia inhibition (mCherry reporter) | Potency, µM (series often up to 36.5 µM), for the others: at the top dose activity change, negative = inhibition, usual class: inhibitors | Vaccinia virus mCherry reporter infection, fluorescence; about a quarter of the inactives have no number | actives 0.63% (n = 310,000); active = well fitted inhibition curve with a large enough effect; inconclusive = small, poorly fitted or top-dose-only effect; inactive = no such curve, though single readings can be large or run the other way; tested in A549 cells; further: nearly all actives have a fitted effect of over 35% in size; inactives centre near -10
VACV Venus inh: vaccinia inhibition (Venus reporter); Vaccinia virus Venus reporter expression, fluorescence; Potency, µM (titrated, usually from 36.5 µM), without a hit: at the top dose activity change, negative = inhibition, hits mostly inhibitors; actives 0.46% (n = 330,000); active means well fitted inhibition curve with a large enough effect; inconclusive means small, poorly fitted or top-dose-only effect; inactive means no such curve, though single readings can be large or run the other way; tested in A549 cells; further: nearly all actives have a fitted effect of over 30% in size; inactives centre near -10
* marks the source's active call; other numbers are inactive results; i = inactive; ? = inconclusive; / = no result given; [ ] = dose if it differs, or a comment. On the % scale 0 is the no-effect control and ±100 the full control effect; potency means the concentration at half of the fitted maximal effect.

cpd	SMILES	VACV mCherry inh	VACV Venus inh
1	CC(=O)C1=C(O)C(=O)N(c2ccc(F)cc2)C1c1ccc(C)cc1 (configuration not stated)	-4%	1%
2	CCOC(=O)c1ccccc1NC(=O)CN1C(=O)CC(c2ccco2)Sc2ccccc21 (configuration not stated)	-8%	-17%
3	CCN(Cc1ccccc1)c1ccc(/C=C/c2nccc3ccccc23)cc1	18%	22%
4	COCCOC(=O)C1=C(C)NC(=O)NC1c1cc2c(cc1Br)OCO2 (configuration not stated)	i	-8%
5	c1ccc(CCN(Cc2ccccc2)Cc2nc(C3CC3)no2)cc1	-1%	-11%
6	O=C1N(Cc2cccnc2)C[C@@H]2C[C@@H](c3cccc(OCc4ccccc4)c3)N3CCC[C@@]123	-18%	-1%
7	O=C(NC(=S)Nc1ccc2[nH]c(=O)[nH]c2c1)c1cncc(Br)c1	i	1%
8	O=C(CCC(=O)N1CC2C[C@@H](C1)Cn1c2cccc1=O)NCCc1ccccc1	3%	-6%
9	COC(=O)c1ccc(C(=O)OC)c(NC(=O)CCS(=O)(=O)Cc2ccccc2)c1	i	-11%
10	c1ccc2c(N3CCNCC3)nc(-c3ccoc3)nc2c1	19%	22%
11	COc1cccc(-n2c(SCC(=O)NCC3CCCO3)nc3c(c2=O)SCC3)c1 (configuration not stated)	-11%	2%
12	CCOC(=O)CCNC(=O)CCNC(=O)C(c1ccccc1)c1ccccc1	i	-8%
13	CC(C)(C)OC(=O)N1CCC(c2c(C(=O)NCCc3ccccc3)cnn2-c2ccc(F)cc2)CC1	-12%	-14%
14	C=CC[C@H](CC(=O)N[C@H](CO)Cc1ccccc1)C(=O)N[C@@H](COC(=O)[C@@H](CC=C)Cc1ccc(F)cc1)Cc1c[nH]c2ccccc12	i	-28%
15	O=C(CSc1nc2c(cnn2-c2ccc(F)cc2)c(=O)[nH]1)N1CCCCC1	i	-7%
16	Cc1ccc(C(=O)Nc2ccccc2C(=O)NCc2ccccc2)cc1	-10%	-21%
17	COc1ccc(CN2CNc3c(c(=O)n(C)c(=O)n3C)C2)cc1	-16%	-15%
18	CCn1cc(/C=C(\NC(=O)c2cc(OC)c(OC)c(OC)c2)C(=O)NCCCn2ccnc2)c2ccccc21	2%	8%
19	CN(C)c1ccc(N=Nc2ccc3ncccc3c2)cc1	-13%	-12%
20	CC(=O)c1cccc(S(=O)(=O)N2CCCC(c3nc4c(nnn4Cc4ccc(C)cc4)c(=O)[nH]3)C2)c1 (configuration not stated)	-6%	0%
21	CCc1ccc2oc(-c3ccc(NC(C)=O)cc3)nc2c1	i	-16%
22	COCCNc1nc(NC(C)C)nc2ccsc12	-6%	1%
23	O=C(NCc1cccnc1)c1cccs1	i	-6%
24	CCn1c(SCc2c(F)cccc2Cl)nc(=O)c2c(C(=O)OC)cc(C3CC3)nc21	-21%	-15%
25	COc1ccc(Nc2ccc(N3C(=O)CC(C)C3=O)cc2[N+](=O)[O-])cc1OC (configuration not stated)	i	2%
26	COc1ccc(CC(=O)O/N=C(\N)c2ccccc2)cc1OC	i	-5%
27	COC(=O)c1cc2oc3ccccc3c2n1Cc1c(F)cccc1Cl	-15%	-17%
28	O=C(NCc1ccco1)Nc1cccs1	-10%[1.46 µM]	1%
29	COC(=O)c1ccc(CSc2nnc3nc(C)cc(C)n23)cc1	-2%	-13%
30	COc1ccc(-c2sc3cc4c(cc3c2-c2ccc(OCCN3CCCCC3)cc2)OCO4)cc1	-9%	?

Look-ups from the results shown:
CCc1ccc2oc(-c3ccc(NC(C)=O)cc3)nc2c1 in VACV Venus inh has -16%
COC(=O)c1ccc(CSc2nnc3nc(C)cc(C)n23)cc1 in VACV Venus inh has -13%

Following part:
cpd	SMILES	VACV mCherry inh	VACV Venus inh
31	COc1cc2oc(=O)cc(C)c2c(OC)c1OC	i	-19%
32	Cc1ccc(S(=O)(=O)C(CNC(=O)c2ccc(C(F)(F)F)cc2)c2ccco2)cc1 (configuration not stated)	-8%	-15%
33	CCOc1ccc(C(=O)OCC(=O)N(Cc2ccccc2)Cc2ccccc2)cc1OC	-16%	-15%
34	CC(C)Oc1ccc(C(=O)Nc2ccc(N3CCN(C(=O)c4ccco4)CC3)cc2)cc1	-12%	6%
35	Cc1cccc(N2CCN(C(=O)c3ccc(Cl)c(NC4=NC5CS(=O)(=O)CC5S4)c3)CC2C)c1 (configuration not stated)	-5%[7.34 µM]	-1%[7.34 µM]
36	CSCC[C@H](NC(=O)N1CCn2c1nc1ccccc12)C(=O)N[C@H](Cc1ccccc1)C(=O)O	5%	-1%
37	Cc1ccc(-c2nn(-c3ccccc3)cc2/C=C(\C#N)c2cccc(C#N)c2)o1	-11%	-4%
38	COc1ccc(-c2[nH]ncc2CN(CC2CCC(=O)N2)C(C)C)cc1F (configuration not stated)	i	-17%
39	CCOC1=C2CN(S(=O)(=O)c3ccc(C)cc3)[C@@H](c3ccc(CC)cc3)C[C@H]2[C@H]2C(=O)N(c3ccccc3)C(=O)[C@H]2C1	18%	-4%
40	COc1cc(NC(=O)c2cncc(-c3ccc(C#N)cc3)c2)cc(C(=O)Nc2cccc(C(F)(F)F)c2)c1	?	?
41	C#CC(C)(CC)NC(=O)c1cc2nc(C3CC3)cc(C(F)(F)F)n2n1 (configuration not stated)	-10%	-12%
42	COC(=O)CNC(=O)C1CC(=O)N(CCc2ccc(F)cc2)C1 (configuration not stated)	-18%	-18%
43	CCOC(=O)c1c(C)[nH]c(C)c1S(=O)(=O)N1CCCC(C(=O)Nc2ccc(C)c(N(C)C)c2)C1 (configuration not stated)	-16%	-6%
44	O=CN(c1ccccc1)c1ccc2ccccc2c1	-9%	-12%
45	CCOc1ccccc1CN1CCNC(=O)C1CC(=O)N(C)CCC1CCOCC1 (configuration not stated)	-7%	-8%
46	O=C1C=C(c2ccc(F)cc2OCc2ccccc2)C[C@@H](c2ccc3c(c2)OCO3)C1	?	-29%
47	CC1CCCN(S(=O)(=O)c2ccc3[nH]c(=O)cc(C(=O)NCCCN4CCCCCC4)c3c2)C1 (configuration not stated)	i	-10%
48	Cc1ccc(NC(=O)CSc2nnc(NC(=O)NC3CCCCC3)s2)cc1	-5%[7.34 µM]	-17%[7.34 µM]
49	Cc1ccc(S(=O)(=O)NCCC(=O)OCC(=O)N(C)c2ccccc2)cc1	-12%	-6%
50	COc1ccc(S(=O)(=O)N(Cc2ccccc2)c2ccccc2C(=O)O)cc1	-21%	-9%
51	O=C(COC(=O)CNC(=O)c1ccc(Cl)cc1Cl)NNC(=O)c1ccccc1F	-11%	-11%
52	CCc1ccccc1NC(=O)c1nnn(CC(=O)Nc2cccc(C)c2C)c1N	-19%	-15%
53	CCCNC(=S)Nc1c(C)n(C)n(-c2ccccc2)c1=O	-3%	-10%
54	CCOc1ccc(NC(=O)CN(C)C(=O)c2ccc(C)c(S(=O)(=O)N3CCCCC3)c2)cc1OCC	-8%	-14%
55	CCN1CCN(C(=O)C2CCN(S(=O)(=O)N3CCC4(CC3)OCCO4)CC2)CC1	-4%[7.34 µM]	7%[7.34 µM]
56	CN(CC(=O)Nc1ccc(C#N)cc1)Cc1ccc(Cl)cc1	-22%	-24%
57	CCCC(=O)c1c[nH]c(C(=O)NCCCN2CCOCC2)c1	/	-14%
58	CC1(C)CC(=O)C2=C(C1)OC(=O)C2(NC(=O)c1cccs1)C(F)(F)F (configuration not stated)	-18%	-14%
59	COc1ccc(-c2cc(C(=O)N3CCCC(C(F)(F)F)C3)c3ccccc3n2)cc1OC (configuration not stated)	-6%	6%
60	CC(=O)Nc1ccc(/C(C)=N/NC(=O)c2ccncc2)cc1	0%	-1%

Profiles from above. Screens in order: VACV mCherry inh | VACV Venus inh
CCCNC(=S)Nc1c(C)n(C)n(-c2ccccc2)c1=O reads -3% | -10%
CC1(C)CC(=O)C2=C(C1)OC(=O)C2(NC(=O)c1cccs1)C(F)(F)F (configuration not stated) reads -18% | -14%
COc1ccc(-c2cc(C(=O)N3CCCC(C(F)(F)F)C3)c3ccccc3n2)cc1OC (configuration not stated) reads -6% | 6%
CCOc1ccc(NC(=O)CN(C)C(=O)c2ccc(C)c(S(=O)(=O)N3CCCCC3)c2)cc1OCC reads -8% | -14%
CCc1ccccc1NC(=O)c1nnn(CC(=O)Nc2cccc(C)c2C)c1N reads -19% | -15%

More structures:
cpd	SMILES	VACV mCherry inh	VACV Venus inh
61	CCc1cccc(NC(=O)CCn2c(=O)c3cccn3c3cccnc32)c1	-20%	-16%
62	COc1ccc(NC(=O)CN(C)C(=O)c2ccc(N3CCCC3)c([N+](=O)[O-])c2)cc1	i	1%
63	O=C(CSc1nc2ncccc2[nH]1)Nc1cc(F)ccc1F	-10%	-11%
64	COc1ccc2nc(C)cc(SCC(=O)N/N=C/c3ccco3)c2c1	-22%	-21%
65	C=CCNC(=O)c1ccccc1CCc1ccccc1	-14%	-14%
66	COc1ccc2nc(N3C(=O)/C(=C/c4ccccc4)NC3=S)sc2c1	-7%	30%[activator]
67	CCCCc1ccc(NC(=O)N[C@H](C(=O)O)C(C)C)cc1	/	-11%
68	Cc1ccc(C(=O)N/C(=C\c2ccc(F)cc2)C(=O)NCCN2CCOCC2)cc1	-7%	3%
69	CC(C)(C)NC(=O)CSc1ncccc1-c1nc2ccccc2[nH]1	11%	-4%
70	Cc1ccccc1NC(=O)c1ccccc1O	-26%	-26%
71	O=C(CSc1nc2cc(S(=O)(=O)N3CCOCC3)ccc2o1)Nc1c(F)cccc1F	i	-18%
72	COc1ccc(N(CC(=O)Nc2ccc3c(c2)OCO3)S(=O)(=O)c2ccc(C)cc2)cc1OC	i	-4%
73	Cn1c(=O)c2c(nc(SCC(=O)NCc3ccco3)n2C)n(C)c1=O	-10%	2%
74	O=C(O)c1cccc(NS(=O)(=O)c2ccc3nnn(O)c3c2)c1	/	-2%
75	O=C(c1ccc(S(=O)(=O)NCc2ccco2)cc1)N1CCCC1	i	-14%
76	Cc1cc(C)c2cc(CN(CCO)Cc3nnnn3Cc3ccc(F)cc3)c(=O)[nH]c2c1	-26%	-13%
77	COC(=O)c1sccc1NC(=O)Nc1cccc(C)c1C	-11%	-13%
78	Cc1ccc(NC(=O)C(=O)NCC(c2cccnc2)N2CCc3ccccc3C2)cc1 (configuration not stated)	-13%	-25%
79	Cc1ccc(C)c(SCC(=O)OCC(=O)N2CC(C)OC(C)C2)c1 (configuration not stated)	-14%	6%
80	COc1ccc(C(=O)NC(=O)N2CCCCC2)cc1	-1%	-12%
81	Cc1ccc(Nc2sc(C(=O)c3ccccc3)c(N)c2S(=O)(=O)c2ccccc2)cc1Cl	-14%	-9%
82	O=C(O)[C@@H]1CCCN(S(=O)(=O)c2cccc3cccnc23)C1	-14%	-5%
83	O=C(NCC[C@H]1CC[C@@H](NC(=O)C2CCOCC2)[C@@H](CO)O1)Nc1ccc(Cl)cc1	-19%	-4%
84	CC(=O)c1c(O)cc(O)cc1CC(=O)O	5%	-5%
85	O=c1cc[nH]c2c1ccc1cccnc12	-20%	-19%
86	C#CCn1c(-c2ccccc2)ccc(C#N)c1=O	-14%	-26%
87	CCc1c(C)nc(SCc2nc(-c3ccccc3)no2)[nH]c1=O	i	-8%
88	O=C1CC(SC(=NCc2ccc3c(c2)OCO3)Nc2ccccc2)C(=O)N1c1ccccc1 (configuration not stated)	/	-21%
89	CN(C)Cc1ccccc1-c1nc(N2CCOCC2)c2ccccc2n1	-16%	-10%
90	CC1CCN(C(=O)Cn2cnc3c(cnn3C(C)(C)C)c2=O)CC1	-20%	-7%
91	Cc1nc2ccccn2c1C(=O)NCCCN1CCOCC1	-14%	-12%
92	CC(C)=NNc1nc(-c2ccccc2)cs1	-26%	-6%
93	CSc1n[nH]c(NCc2ccccc2)n1	/	19%
94	Cc1ccc(Nc2nnc(SCC(=O)Nc3cccc(S(=O)(=O)N4CCCCC4)c3)s2)cc1	?	?
95	O=c1c([N+](=O)[O-])cccn1Cc1ccccc1Cl	i	-10%
96	Cc1cccc(/C=C/C(=O)c2ccc(NC3=NCCCS3)cc2)c1	-19%	?
97	COC(=O)C(C(=O)OC)C1CCCCC1NS(=O)(=O)c1ccc(C)cc1 (configuration not stated)	-9%	-14%
98	CC(C)CN(C(=O)c1cccc(S(=O)(=O)N2CCN(Cc3ccccc3)CC2)c1)C1CCS(=O)(=O)C1 (configuration not stated)	-7%	-5%
99	CCOC(=O)c1ccccc1NC(=O)c1c(O)[nH]c(=S)[nH]c1=O	-15%	-4%
100	Nc1cc(=O)[nH]c2ncnn12	-8%	-1%
101	C[C@H]1COC(=O)CCC/C=C\C[C@H](CC(=O)N(CCO)Cc2ccccc2)C(=O)N1	i	3%
102	COc1ccc(OCC(=O)Nc2cc(-c3cccc(Cl)c3)nn2-c2ccccc2)cc1	?	-28%
103	CCc1nnc2sc(-c3ccc(NC(=O)CSc4ccc(Cl)cc4)cc3)nn12	/	12%
104	Cc1cccc(OCC(=O)Nc2ccc3oc(-c4ccccc4F)nc3c2)c1	-10%	-7%
105	CCCNC(=O)C(Cc1ccc(I)cc1)NC(=O)C1CC1 (configuration not stated)	i	-23%
106	CC(=O)OCC(=O)Nc1ccc(N=Nc2ccccc2)cc1	?	?
107	Nc1cc(S(=O)(=O)C(F)(F)F)ccc1C(=O)O	/	-10%
108	CCc1ccccc1NC(=O)CNC(=O)c1ccc(OCc2cn3ccccc3n2)cc1	-13%	-5%
109	CCN1CCN(CCCNC(=O)CCC(=O)N2CC(C)Oc3ccc(C)cc32)CC1 (configuration not stated)	-11%	-11%
110	O=C(NCc1ccncc1)c1cc(S(=O)(=O)N2CCOCC2)c(Cl)cc1Cl	-5%	-9%
111	CCOc1ccc2nc(SCC(=O)c3cccs3)sc2c1	-15%	-27%
112	O=[N+]([O-])c1ccc(N2CCN(c3ccccn3)CC2)c(Cl)c1	-8%	-4%
